# Screening data (PubChem)
# Cruzain inh noDet: cruzain (T. cruzi) inhibition without detergent; purified cruzain, Z-FR-AMC fluorescence, no detergent; Potency, µM, for the others: max response, negative = inhibition, most hits filed as inhibitors; hit rate 2.3% among 200,000; AID 1476; active = well fitted curve in the direction sought with a large enough effect; inconclusive = small, poorly fitted or top-dose-only effect, or another doubt; inactive = no such curve, though single readings can be large; an effect the other way counts as inactive or inconclusive;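 also: plate controls were enzyme without inhibitor for no effect and buffer without enzyme for full effect; nearly all actives have a fitted effect of over 40% in size; top concentration of the series not given in the record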
# Target sequence (P25779 123-467 limits assumed): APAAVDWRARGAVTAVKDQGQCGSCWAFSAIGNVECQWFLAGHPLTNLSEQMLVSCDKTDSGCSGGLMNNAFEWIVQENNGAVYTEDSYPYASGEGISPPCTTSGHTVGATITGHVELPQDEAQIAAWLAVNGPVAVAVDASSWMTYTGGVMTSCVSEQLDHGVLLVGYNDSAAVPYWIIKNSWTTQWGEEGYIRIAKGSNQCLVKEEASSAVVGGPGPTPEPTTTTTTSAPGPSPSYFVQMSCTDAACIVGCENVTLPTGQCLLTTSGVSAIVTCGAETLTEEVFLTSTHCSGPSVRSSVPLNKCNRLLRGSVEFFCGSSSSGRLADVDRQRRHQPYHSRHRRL
#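 Detergent-free condition (0.00005% Triton X-100) in acetate buffer pH 5.5 with DTT. 1.5 nM enzyme and compound were pre-mixed 15 min, then 2 uM Z-FR-AMC substrate added; reaction progress from fluorescence change between first and third reads (60 s).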
# RE007 growth inh: less growth of the S. pombe RE007 Vpr strain | AID 651644 | S. pombe RE007 Vpr strain, BacTiter-Glo ATP luminescence, 24 h; control for the full effect not named in the record | Potency, µM (titrated, usually from 92.2 µM), without a hit: top-dose activity change, negative = less growth | hit rate 0.21% among 360,000; active = well fitted falling curve with a large enough effect; inconclusive = small, poorly fitted or top-dose-only effect; inactive = no such curve, though single readings can be large or run the other way;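 also: % is scaled to controls: 0 for no effect and ±100 for the full control effect; nearly all actives have a fitted effect of over 50% in size; the assay follows cell death caused by Vpr and the record does not say whether a fall means rescue or toxicity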
#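 Fission yeast strain RE007, carrying one chromosomally integrated HIV-1 vpr copy, was seeded at OD 0.01 in PMG+AL medium with 23 nL pinned compound. After 24 h at 30 °C and 99% humidity, viability was read by BacTiter-Glo luminescence.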
# SARS PLP yeast: inhibitors of SARS-CoV papain-like protease in yeast; Potency, µM (top dose mostly 32.9 µM), without a hit: at the highest dose activity, positive = growth rescue; hit rate 0.19% among 330,000; AID 485353; S. cerevisiae expressing SARS-CoV PLpro, growth rescue; control for the full effect not named in the record; also: 0% is about no effect; nearly all actives have a fitted effect of over 55% in size; growth read by luminescence after 48 h
# StopGo reporter: FMDV 2A StopGo reporter, luciferase signal. Potency, µM (series often up to 57.9 µM), without a hit: at the top dose signal change, negative = less light. human cells with a luciferase reporter of 2A StopGo recoding; control for the full effect not named in the record. AID 1159524. hit rate 1.2% among 410,000; active = well fitted falling curve with a large enough effect; inconclusive = small, poorly fitted or top-dose-only effect; inactive = no such curve, though single readings can be large or run the other way; tested in HEK293T cells; also: % is scaled to controls: 0 for no effect and ±100 for the full control effect; nearly all actives have a fitted effect of over 45% in size; luciferase light after 4 h
# Cruzain Triton: cruzain (T. cruzi) inhibition with detergent; AID 1478; purified cruzain, Z-FR-AMC fluorescence, 0.01% Triton; Potency, µM, without a hit: max response, negative = inhibition, actives largely listed as inhibitors; P25779; hit rate 0.43% among 200,000; active = well fitted curve in the direction sought with a large enough effect; inconclusive = small, poorly fitted or top-dose-only effect, or another doubt; inactive = no such curve, though single readings can be large; an effect the other way counts as inactive or inconclusive;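 also: plate controls were neutral wells for no effect and buffer without enzyme for full effect; nearly all actives have a fitted effect of over 40% in size; top concentration of the series not given in the record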
#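 Purified cruzain (1.5 nM final) was preincubated with compounds for 15 min at room temperature in 100 mM sodium acetate pH 5.5, 5 mM DTT, 0.01% Triton X-100. Reaction started with 2 uM Z-FR-AMC; AMC fluorescence change over 60 s gave activity.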
# Lassa entry inh: Lassa virus entry inhibition. Lassa virus pseudotype entry inhibition, cell reporter; control for the full effect not named in the record. Potency, µM (series often up to 37.9 µM), inactives show at the top dose activity change, negative = inhibition, hits mostly inhibitors. hit rate 1.2% among 300,000; active means well fitted inhibition curve with a large enough effect; inconclusive means small, poorly fitted or top-dose-only effect, or effect the other way; inactive means flat fitted curve, though single readings scatter; tested in HEK293 cells; also: % is scaled to controls: 0 for no effect and ±100 for the full control effect; nearly all actives have a fitted effect of over 50% in size; luciferase read-out
# NS1 function inh: influenza NS1 inhibition | S. cerevisiae slowed by influenza A NS1, growth recovery by OD600 | Potency, µM (highest dose often 46.1 µM), inactives show at the highest dose activity, positive = more growth | hit rate 0.4% among 270,000 | AID 2326; also: actives are rising curves; nearly all actives have a fitted effect of over 50% in size
#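 A cell-based growth assay was used: compounds that relieve NS1-induced slow growth of budding yeast raise OD600. Assay medium was yeast nitrogen base with ammonium sulphate and -URA supplement, pH 6.0, with 2% galactose.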
# MARV entry inh: blocks Marburg virus binding to or entry into cells; Marburg virus pseudotyped entry inhibition, cell reporter; control for the full effect not named in the record; about a third of the inactives were read at about 46 µM; Potency, µM (series often up to 37.8 µM), for inactives: at the highest dose activity change, negative = inhibition, hits mostly inhibitors; hit rate 1.8% among 300,000; active = well fitted inhibition curve with a large enough effect; inconclusive = small, poorly fitted or top-dose-only effect, or effect the other way; inactive = flat fitted curve, though single readings scatter; tested in HEK293 cells; about a fifth of its hits are not listed in these tables; also: % is scaled to controls: 0 for no effect and ±100 for the full control effect; luciferase read-out
# An asterisk follows results filed as active; ? = inconclusive; . = not tested or not shown; & = joins results of further samples; [ ] = remark or other dose. Unless noted, calls follow the shape of the dose curve; as a rule, active means well fitted rising curve with a large enough effect; inconclusive means small, poorly fitted or top-dose-only effect; inactive means no such curve, though single readings can be large or run the other way. Potency is read from the fitted curve at half-maximal effect.
SMILES,Cruzain inh noDet,RE007 growth inh,SARS PLP yeast,StopGo reporter,Cruzain Triton,Lassa entry inh,NS1 function inh,MARV entry inh
COC1CC(C)C(OC)c2cc(O)cc(c2O)NC(=O)C(C)=CC=CC(C)C(OC(N)=O)C(C)=CC(C)C1OC (stereo not drawn),.,15%,.,126µM*,.,?,.,3.5µM*
COC(=O)c1cc(OC)c(OC)cc1NC(=O)c1ccc(Br)o1,.,8%,.,0%,.,-9%,16%,13%
COc1ccc(Cc2nc3ccccc3n2CC(=O)N/N=C/c2ccc(C)cc2O)cc1OC,22%,-12%,10%,-24%,-10%,-3%,5%,-2%
Cc1ccc(S(=O)(=O)N2CCC(C(=O)Nc3ccc(Oc4ccccc4)cc3)CC2)cc1,-4%,.,.,?,-3.6%,-9%[46.1 µM],.,1%[46.1 µM]
CCOc1ccc2nc(NC(=O)Nc3ccccc3)sc2c1,?,-3%,-6%,1%,3.9%,?,-11%,?
CCOc1ccc(C(=O)N2CCCC2C(=O)O)cc1 (stereo not drawn),-2%,-4%,11%,-23%,4.3%,-1%,-1%,10%
COc1ccc(N2CCN(CC(=O)NC(=O)NC(C)(C)C)CC2)cc1,.,1%,0%,-11%,.,2%,.,-4%
CC(NC(=O)COc1ccc(N(C)S(=O)(=O)c2ccccc2)cc1)c1ccccc1 (stereo not drawn),.,7%,-2%,-11%,.,.,-1%,.
Cc1csc(NC(=O)c2ccc(-c3ccc(Cl)cc3Cl)o2)n1,10µM*,1%,5%,-5%,-5.5%,?,10%,?
N#Cc1c(N)n(-c2cccc(O)c2)c2nc3ccccc3nc12,.,14%,0%,4%,.,.,3%,.
CC(NC(=O)c1ccco1)c1ccc2c(c1)OCO2 (stereo not drawn),.,15%,1%,-8%,.,.,6%,.
CCCCNC(=O)c1ccc2c(c1)N(CC)C(=O)CS2,-9%,-2%,-4%,28%,4.9%,-4%,-5%,-1%
CC(CC1C(C#N)=C(N)OC2=C1C(=O)CCC2)c1ccccc1 (stereo not drawn),8%,0%,2%,-12%,-3.1%,-10%,-8%,2%
Cc1cc(C(=O)NN=C2C3CC4CC(C3)CC2C4)c2ccccc2n1,-2%,3%,-4%,-4%,4.1%,2%,-2%,?
COc1ccc(/C=C/C(=O)Nc2nc(C)c(C(=O)N(C)C)s2)cc1,-8%,48%,-4%,-27%,-12%,-1%,12%,8%
CCCOc1ccc(/C=C/C(=O)O)cc1OC,.,2%,4%,9%,.,7%[46.1 µM],.,6%[46.1 µM]
Cc1ccc(S(=O)(=O)NCc2c(-c3ccccc3)noc2C)cc1,.,4%,0%,23%,.,?,-1%,-11%
COCCCN1Cc2cccc(C(=O)O)c2C1=O,9%,1%,6%,-15%,2.1%,.,-4%,.
CCN(CC)CCNc1nc(-c2ccccc2)nnc1C(F)(F)F,-12%,0%,1%,0%,5.3%,8%,11%,-26%
Cc1ccc2c(c1)nnn2C1CCN(S(C)(=O)=O)CC1,-4%,14%,-5%,22%,1.4%,-7%,-6%,3%[46.1 µM]
C=CCn1c(O)c(/C=C2\C=NN=C2c2ccccc2)sc1=S,.,-9%,-2%,-18%,.,?,4%,?
Cc1ccc(NC(=O)COC(=O)C2=COCCO2)c([N+](=O)[O-])c1,.,19%,-1%,-8%,.,1%,-3%,23%[46.1 µM]
CC(C)(C)OC(=O)COc1cc(OCC(=O)OC(C)(C)C)c2c(=O)cc(-c3ccccc3)oc2c1,?,-7%,-1%,?,-7.4%,?,6%,?
CCCSc1ccc(C(=O)Nc2ccc(Cl)cc2)cn1,.,7%,-1%,-4%,.,?,1%,?
CN(C)c1ccc(/C=N/NC2=NS(=O)(=O)c3ccccc32)cc1,.,33%,1%,6%,.,-4%[46.1 µM],-6%,25%[46.1 µM]
O=C(NCC(c1ccco1)N1CCCCC1)c1ccc2c(c1)S(=O)(=O)c1ccccc1C2=O (stereo not drawn),.,7%,1%,-14%,.,-7%,5%,-41%
CCN(CC)S(=O)(=O)c1ccc(OC)c(NC(=O)Cn2cnc3c2c(=O)n(C)c(=O)n3C)c1,.,-4%,1%,-2%,.,1%,0%,11%
CC1CN(C(=O)c2ccc(S(=O)(=O)Nc3ccccc3F)cc2)CC(C)O1 (stereo not drawn),.,-7%,1%,8%,.,9%,.,-27%[46.1 µM]
Cc1ccc(C(=O)NCCN2C3=NC[C@H](C)N3C[C@H]2Cc2ccc(O)cc2)cc1Br,.,-6%,-2%,-1%,.,.,0%,.
CCOc1ccc(OCCOc2ccc(/C=C/C(=O)O)cc2OCC)cc1,.,-3%,7%,-9%,.,.,13%,-10%[46.1 µM]
NC(=O)c1nsc(C(=O)N(c2ccccc2)C(C(=O)NCC2CCCO2)c2cccs2)c1N (stereo not drawn),.,0%,1%,-20%,.,?,1%,?
CCOC(=O)Cc1csc(NC(=O)c2sc3nc4ccc(CC)cc4cc3c2N)n1,1%,-29%,0%,23%,-11%,10%,27%,?
Cc1cc2c(cc3c(=O)n(CC(=O)NCc4ccccc4Br)ncn32)s1,8%,.,.,5%,0.0%,.,.,15%[46.1 µM]
Cc1cc(C)cc(Nc2sc(C(=O)c3ccccc3)c(N)c2S(=O)(=O)c2ccccc2)c1,10µM*,.,.,-35%,0.4%,?,.,.
CC1CCN(S(=O)(=O)c2ccc(NC(=O)CSc3ncccc3C(=O)O)cc2)CC1,4%,1%,1%,.,0.2%,3%,?,14%
CCC(C(=O)OC)n1cnc2c(oc3ccccc32)c1=O (stereo not drawn),.,6%,?,20%,.,.,12%,.
COc1ccc(/C=C/C(=O)NCC(=O)n2nc(C)cc2C)cc1,.,-3%,0%,-13%,.,.,1%,.
COc1cc(CNC(=O)C2CCCCN2S(=O)(=O)c2ccc(F)cc2)cc(OC)c1OC (stereo not drawn),7%,.,.,?,0.8%,5%[46.1 µM],.,.
CCOc1ccc(C2c3c(-c4ccc(C)cc4)n[nH]c3C(=O)N2c2ccc(Cl)cc2)cc1 (stereo not drawn),14%,.,.,-21%,-3.4%,?,.,?
CCOc1ccc(C(=O)NCC(c2ccco2)N2CCOCC2)cc1 (stereo not drawn),.,-1%,-3%,-3%,.,5%,.,15%
CC(=O)Nc1nonc1-c1nnc(SCc2ccccc2Cl)n1C,3%,.,.,0%,0.0%,-3%[46.1 µM],.,10%[46.1 µM]
CCn1cc2nc(SCC(=O)Nc3cccc(Cl)c3C)n(Cc3ccc(Cl)cc3)c(=O)c2n1,?,.,.,-21%,-5.0%,1%[46.1 µM],.,?
CC(C)NC(=O)c1ccccc1S(=O)c1ccccc1C#N (stereo not drawn),4%,-2%,-4%,-17%,2.0%,-1%,4%,-1%
O=C(Cc1cccs1)N/N=C/c1ccccc1,.,-9%,-2%,19%,.,?,-3%,-5%[46.1 µM]
CC1CCCC/C1=N/Nc1ccc([N+](=O)[O-])cc1[N+](=O)[O-] (stereo not drawn),-16%,5%,3%,-20%,-5.6%,-22%,10%,4%
COc1ccc(N2CCN(CCCn3c(=S)[nH]c4ccccc4c3=O)CC2)cc1,.,-1%,1%,1%,.,.,0%,.
CCOc1cc(CNC(=O)Cn2ncn3c(cc4cc(F)ccc43)c2=O)cc(OCC)c1OCC,0%,.,.,-23%,0.1%,.,.,14%[46.1 µM]
NC(=O)c1cc2nc(-c3ccco3)cc(C(F)(F)F)n2n1,-15%,8%,-29%,-7%,-7.1%,8%,5%,11%
COc1ccc(NC(=S)NC(=O)CC(C)C)c(OC)c1,.,-13%,0%,54%[activator],.,13%,.,?
CC(OC(=O)c1ccc2c(c1)S(=O)(=O)c1ccccc1C2=O)C(N)=O (stereo not drawn),.,-6%,1%,-7%,.,2%,-2%,-15%[46.1 µM]
CCCc1[nH]n(-c2nc3ccccc3s2)c(=O)c1C=NCC(C)C,-8%,12%,-19%,-12%,-6.0%,-7%,-57%,4%
Cc1ccc(Cl)cc1NC(=O)c1cnc(N2CCCCC2)c2ccccc12,4%,.,.,?,0.6%,-2%[46.1 µM],.,.
Cn1nc(C(F)(F)F)c(/C=N/OCc2c(Cl)cccc2Cl)c1Cl,-9%,4%,-11%,-16%,1.2%,-14%,-12%,-22%
O=C(NC1CCCCC1)N(Cc1cc2cc3c(cc2[nH]c1=O)OCCO3)C1CCCCC1,21%,1%,7%,-3%,-11%,11%,4%,?
COc1ccc(N2C(=O)CC(SCc3ccc(Cl)cc3)C2=O)cc1 (stereo not drawn),.,-11%,-8%,-23%,.,.,-12%,.
COc1ccc(C(=O)COC(=O)CNC(=O)c2cc(OC)cc(OC)c2)cc1,-8%,4%,11%,-9%,-28%,19%,-5%,22%
CN(C)S(=O)(=O)c1ccc(NC(=O)CCNC(=O)c2ccc([N+](=O)[O-])cc2)cc1,.,20%,1%,0%,.,-9%[46.1 µM],.,-6%[46.1 µM]
NC(=O)Nc1ccc(C(=O)OCC(=O)c2c[nH]c3ccccc23)cc1,.,-4%,-2%,26%,.,0%[46.1 µM],.,?
Cc1ccc(N2CC(C(=O)NCCS(=O)(=O)N3CCN(c4ccccc4)CC3)CC2=O)cc1C (stereo not drawn),4%,8%,-4%,-7%&-3%,-1.1%,2%[46.1 µM],5%,.
CCS(=O)(=O)N1CCC(C(=O)NCCCOC)CC1,-2%,-2%,1%,.,5.6%,4%,1%,21%
CCCCOc1ccc(CSc2ncn[nH]2)cc1,3%,-13%,-4%,18%,-1.3%,?,-70%,?
CCCCN(CCCC)CC(O)CN(c1cc([N+](=O)[O-])ccc1OC)S(=O)(=O)c1ccccc1 (stereo not drawn),9%,4%,-12%,2%,1.7%,?,-10%,?
